Cruzain inh noDet = qHTS Assay for Promiscuous and Specific Inhibitors of Cruzain (without detergent). 200,000 compounds, 2.3% hits. purified cruzain, Z-FR-AMC fluorescence, no detergent. AID 1476, 2009. Potency, µM, inactives show max response, negative = inhibition, most hits filed as inhibitors;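 further: plate controls were enzyme without inhibitor for no effect and buffer without enzyme for full effect; nearly all actives have a fitted effect of over 40% in size; top concentration of the series not given in the record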
Target sequence (P25779 123-467 limits assumed): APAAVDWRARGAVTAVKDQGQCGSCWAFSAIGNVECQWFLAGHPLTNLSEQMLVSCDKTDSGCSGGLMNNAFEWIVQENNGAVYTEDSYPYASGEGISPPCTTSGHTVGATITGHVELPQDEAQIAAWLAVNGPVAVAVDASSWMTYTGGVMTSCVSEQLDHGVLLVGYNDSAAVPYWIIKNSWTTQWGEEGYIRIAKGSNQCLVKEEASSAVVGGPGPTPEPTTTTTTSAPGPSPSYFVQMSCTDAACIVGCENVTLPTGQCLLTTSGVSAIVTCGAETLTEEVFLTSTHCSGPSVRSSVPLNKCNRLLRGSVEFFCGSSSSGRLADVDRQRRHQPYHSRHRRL
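Detergent-free condition (0.00005% Triton X-100) in acetate buffer pH 5.5 with DTT. 1.5 nM enzyme and compound were pre-mixed 15 min, then 2 uM Z-FR-AMC substrate added; reaction progress from fluorescence change between first and third reads (60 s).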
StopGo reporter = High Throughput Screening for Foot and Mouth Disease Virus Antivirals; human cells with a luciferase reporter of 2A StopGo recoding; control for the full effect not named in the record; Potency, µM (top dose mostly 57.9 µM), inactives show at the highest dose signal change, negative = less light; 410,000 compounds, 1.2% hits; active = well fitted falling curve with a large enough effect; inconclusive = small, poorly fitted or top-dose-only effect; inactive = no such curve, though single readings can be large or run the other way; tested in HEK293T cells; further: on the % scale 0 is the no-effect control and ±100 the full control effect; nearly all actives have a fitted effect of over 45% in size; luciferase light after 4 h
RE007 growth inh = qHTS Assay for Inhibitors of the HIV-1 protein Vpr; 360,000 compounds, 0.21% hits; Potency, µM (doses to about 92.2 µM), without a hit: at the top dose activity change, negative = less growth; S. pombe RE007 Vpr strain, BacTiter-Glo ATP luminescence, 24 h; control for the full effect not named in the record; active = well fitted falling curve with a large enough effect; inconclusive = small, poorly fitted or top-dose-only effect; inactive = no such curve, though single readings can be large or run the other way;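 further: on the % scale 0 is the no-effect control and ±100 the full control effect; nearly all actives have a fitted effect of over 50% in size; the assay follows cell death caused by Vpr and the record does not say whether a fall means rescue or toxicity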
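Fission yeast RE007 carrying one integrated HIV-1 vpr copy, seeded at OD 0.01 in PMG+AL medium with 23 nL pinned compound. Grown 24 h at 30 degrees; viability read by BacTiter-Glo luminescence after 5 min.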
SARS PLP yeast = qHTS of Yeast-based Assay for SARS-CoV PLP; S. cerevisiae expressing SARS-CoV PLpro, growth rescue; control for the full effect not named in the record; Potency, µM (titrated, usually from 32.9 µM), without a hit: at the top dose activity, positive = growth rescue; 330,000 compounds, 0.19% hits; AID 485353, 2010; active means well fitted rising curve with a large enough effect; inconclusive means small, poorly fitted or top-dose-only effect; inactive means no such curve, though single readings can be large or run the other way; further: 0% is about no effect; nearly all actives have a fitted effect of over 55% in size; growth read by luminescence after 48 h
NS1 function inh = qHTS Assay for Inhibitors of Influenza NS1 Protein Function. S. cerevisiae slowed by influenza A NS1, growth recovery by OD600. Potency, µM (top dose mostly 46.1 µM), for inactives: at the top dose activity, positive = more growth. 270,000 compounds, 0.4% hits; active means well fitted rising curve with a large enough effect; inconclusive means small, poorly fitted or top-dose-only effect; inactive means no such curve, though single readings can be large or run the other way; further: nearly all actives have a fitted effect of over 50% in size
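Read-out: OD600 growth recovery of NS1-expressing budding yeast. Cells grown overnight at 30C in -URA glucose medium, washed, resuspended and diluted 1:100 in 2% galactose assay medium, pH 6.0. Same strain lacking NS1 served as positive control.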
LASV entry inh = qHTS for Inhibitors of binding or entry into cells for Lassa Virus; Potency, µM (titrated, usually from 37.9 µM), without a hit: top-dose activity change, negative = inhibition, hits mostly inhibitors; Lassa virus pseudotype entry inhibition, cell reporter; control for the full effect not named in the record; AID 540256, 2011; 300,000 compounds, 1.2% hits; active means well fitted inhibition curve with a large enough effect; inconclusive means small, poorly fitted or top-dose-only effect, or effect the other way; inactive means flat fitted curve, though single readings scatter; tested in HEK293 cells; further: on the % scale 0 is the no-effect control and ±100 the full control effect; nearly all actives have a fitted effect of over 50% in size; luciferase read-out
Marburg entry inh = qHTS for inhibitors of binding or entry into cells for Marburg Virus; Marburg virus pseudotyped entry inhibition, cell reporter; control for the full effect not named in the record; about a third of the inactives were read at about 46 µM; Potency, µM (highest dose often 37.8 µM), for inactives: top-dose activity change, negative = inhibition, most hits filed as inhibitors; 300,000 compounds, 1.8% hits; AID 540276, 2011; active = well fitted inhibition curve with a large enough effect; inconclusive = small, poorly fitted or top-dose-only effect, or effect the other way; inactive = flat fitted curve, though single readings scatter; tested in HEK293 cells; about a fifth of its hits are not listed in these tables; further: on the % scale 0 is the no-effect control and ±100 the full control effect; luciferase read-out
Cruzain inh Det = qHTS Assay for Promiscuous and Specific Inhibitors of Cruzain (with detergent). purified cruzain, Z-FR-AMC fluorescence, 0.01% Triton. Potency, µM, for the others: max response, negative = inhibition, hits mostly inhibitors. 200,000 compounds, 0.43% hits;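 further: plate controls were neutral wells for no effect and buffer without enzyme for full effect; nearly all actives have a fitted effect of over 40% in size; top concentration of the series not given in the record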
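Purified cruzain (1.5 nM final) was preincubated with compounds for 15 min at room temperature in 100 mM sodium acetate pH 5.5, 5 mM DTT, 0.01% Triton X-100. Reaction started with 2 uM Z-FR-AMC; AMC fluorescence change over 60 s gave activity.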
Starred values were filed as active, the others as inactive; & = joins results of further samples; [ ] = another dose, or the depositor's remark. Unless noted, the call rests on the fitted dose curve; in most records, active means well fitted curve in the direction sought with a large enough effect; inconclusive means small, poorly fitted or top-dose-only effect, or another doubt; inactive means no such curve, though single readings can be large; an effect the other way counts as inactive or inconclusive. Potency means the concentration at half of the fitted maximal effect.

Screening CC1CCc2nc3ccc(S(=O)(=O)N4CCC(C(=O)N5CCCCC5)CC4)cc3c(C(=O)O)c2C1 (stereo not given) returned Cruzain inh noDet 6%, StopGo reporter 0%, RE007 growth inh 9%, SARS PLP yeast -5%, NS1 function inh 16% and Cruzain inh Det -1.6%.
For CC1CN(CCN2CC(C)N(C=O)CC2C)C(C)CN1C=O (stereo not given) the results were StopGo reporter -7%, RE007 growth inh 2%, LASV entry inh -13% and Marburg entry inh 6%.
Cc1c(NC(=S)NC(=O)c2ccccc2Br)c(=O)n(-c2ccccc2)n1C was read as StopGo reporter 6%, RE007 growth inh 7%, SARS PLP yeast -1%, NS1 function inh 3%, LASV entry inh 19% and Marburg entry inh 1%.
`O=c1[nH]c2cc([N+](=O)[O-])ccc2c2ccc([N+](=O)[O-])cc12` gave StopGo reporter -22%, RE007 growth inh -3%, LASV entry inh inconclusive and Marburg entry inh -17%.
CCOCCNC(=O)c1ccccc1C(=O)NCCOCC was read as Cruzain inh noDet -4%, StopGo reporter 24%, RE007 growth inh 7%, SARS PLP yeast 3%, NS1 function inh 5%, LASV entry inh -1%, Marburg entry inh 7% and Cruzain inh Det 1.4%.
`CC(C)c1onc(C(=O)Nc2sc3c(c2C#N)CCC3)c1[N+](=O)[O-]` gave StopGo reporter -11%, RE007 growth inh -10%, SARS PLP yeast -3%, LASV entry inh -5%[46.1 µM] and Marburg entry inh 9%[46.1 µM].
`CCN1CCN(C(=O)CSc2ccc(C)cc2)CC1` gave StopGo reporter 45%[activator], RE007 growth inh 8%, SARS PLP yeast -5% and NS1 function inh 15%.
For CCCc1c(C)c2cccc(C)c2[nH]c1=O the results were Cruzain inh noDet -11%, StopGo reporter 0%, RE007 growth inh 4%, SARS PLP yeast 6%, NS1 function inh -23%, LASV entry inh 0%, Marburg entry inh -6% and Cruzain inh Det 2.6%.
For Cc1cccc(NC(=O)c2cnc3ccccn3c2=O)c1 the results were Cruzain inh noDet 1%, StopGo reporter -52%, RE007 growth inh 4%, SARS PLP yeast -1%, NS1 function inh -7% and Cruzain inh Det -1.3%.
COc1ccc(Cn2c(-c3ccc(OC)c(O)c3)nc3ccccc32)cc1O was read as StopGo reporter 16%, RE007 growth inh 21%, SARS PLP yeast 0%, NS1 function inh -2%, LASV entry inh inconclusive and Marburg entry inh inconclusive.
Screening COCCCNC(=O)CSc1nc2cc(S(=O)(=O)N3CCCCC3)ccc2o1 returned StopGo reporter -3%, RE007 growth inh -8%, SARS PLP yeast 1%, LASV entry inh -11% and Marburg entry inh -3%.
`Cc1c2ccccc2nc2c(F)c(NCCO)c(F)c(F)c12` gave Cruzain inh noDet -13%, StopGo reporter 44%[activator], RE007 growth inh 3%, SARS PLP yeast -21%, NS1 function inh 22%, LASV entry inh inconclusive, Marburg entry inh 16% and Cruzain inh Det -12%.
`Cc1ccccc1Nc1nc(N)nc(COC(=O)c2ccco2)n1` gave StopGo reporter 24%, RE007 growth inh -10%, SARS PLP yeast -4%, LASV entry inh inconclusive and Marburg entry inh inconclusive.
For Cc1cc(NC(=O)CSc2n[nH]c(N)n2)no1 the results were StopGo reporter -6%, RE007 growth inh 15%, SARS PLP yeast 4%, LASV entry inh 7% and Marburg entry inh 10%.
Cc1n[nH]c(=O)nc1NC1CCCCC1 was read as Cruzain inh noDet -8%, StopGo reporter -23%, RE007 growth inh 8%, SARS PLP yeast 3%, NS1 function inh 0%&6%, LASV entry inh 13%, Marburg entry inh 2% and Cruzain inh Det 1.3%.
Screening COc1cccc(CNC(=O)CCNC(=O)C2CCN(S(=O)(=O)c3ccccc3)CC2)c1 returned StopGo reporter -14%, RE007 growth inh -1%, SARS PLP yeast -2% and NS1 function inh -5%.
`CN(C)S(=O)(=O)c1ccc(S(=O)(=O)Nc2ccc3c(c2)oc2ccccc23)cc1` gave Cruzain inh noDet inconclusive, StopGo reporter 32%[activator], RE007 growth inh -3%, SARS PLP yeast -2%, NS1 function inh -14%, LASV entry inh 1%, Marburg entry inh -24% and Cruzain inh Det -7.3%.
Cc1cn(S(=O)(=O)c2ccc(F)c(Cl)c2)cn1 was read as Cruzain inh noDet -14%, StopGo reporter -12%, LASV entry inh -18%[46.1 µM], Marburg entry inh -6%[46.1 µM] and Cruzain inh Det 0.4%.
`Cc1ccc(C)c(NC(=O)CSc2nnc(CNC(=O)c3ccccc3)n2-c2ccccc2)c1` gave Cruzain inh noDet -1%, StopGo reporter -6%, LASV entry inh -25%[46.1 µM], Marburg entry inh 2%[46.1 µM] and Cruzain inh Det 0.9%.
FC(F)Sc1ccc(NC(=S)NC(c2ccccc2)c2ccccc2)cc1 was read as StopGo reporter inconclusive, RE007 growth inh 8%, SARS PLP yeast -11%, LASV entry inh inconclusive and Marburg entry inh 18µM*.
Cc1ccc(N(Cc2cccs2)C(=O)c2ccco2)cc1 was read as Cruzain inh noDet 5%, StopGo reporter -15%, LASV entry inh 3%[46.1 µM], Marburg entry inh 1%[46.1 µM] and Cruzain inh Det -4.3%.
CSCCC(=O)Nc1nc(-c2ccccn2)cs1 was read as StopGo reporter 6%, RE007 growth inh -1%, SARS PLP yeast 7%, LASV entry inh -13% and Marburg entry inh 9%.
COc1ccc(CNS(=O)(=O)NCc2ccc(OC)c(OC)c2)cc1 was read as StopGo reporter -27%, RE007 growth inh -1%, SARS PLP yeast 3%, LASV entry inh -13%[46.1 µM] and Marburg entry inh -29%[46.1 µM].
`Cc1cc2n(n1)CCCN2C(=O)Nc1ccc(Cl)cc1` gave Cruzain inh noDet 1%, StopGo reporter 17%, LASV entry inh 16%[46.1 µM] and Cruzain inh Det -1.8%.
NC(=O)c1ccc(SCC(=O)OCC(=O)N2CCCC2=O)c([N+](=O)[O-])c1 was read as StopGo reporter -29%, RE007 growth inh -15%, SARS PLP yeast 1%, LASV entry inh -1%[46.1 µM] and Marburg entry inh 25%.
O=C(CN1CCN(c2ccccn2)CC1)Nc1ccc(F)cc1F was read as StopGo reporter 29%, RE007 growth inh 1%, SARS PLP yeast -2% and NS1 function inh 0%.
`OCCCNC(=S)Nc1ccc(Br)cc1Cl` gave StopGo reporter 58%[activator], RE007 growth inh 24%, SARS PLP yeast 0%, NS1 function inh 0%, LASV entry inh 26% and Marburg entry inh -2%.
`CC(C)=CCN1CCN(Cc2cc3ccccc3[nH]2)CC1CCO` (stereo not given) gave StopGo reporter -8%, RE007 growth inh -6%, SARS PLP yeast -3% and NS1 function inh -16%.
For CC(=O)Nc1ccc(NC(=O)C2CC(=O)N(c3cccc(C)c3C)C2)cc1 (stereo not given) the results were Cruzain inh noDet 0%, StopGo reporter 3%, RE007 growth inh 1%, SARS PLP yeast 2%, NS1 function inh -13%, LASV entry inh -3%, Marburg entry inh 11% and Cruzain inh Det -1.6%.
`NC1=NC(c2ccccc2C(F)(F)F)N(c2ccc(F)c(Cl)c2)C(N)=N1` (stereo not given) gave StopGo reporter -7%, RE007 growth inh 7%, SARS PLP yeast 0% and NS1 function inh -4%.
COc1cccc(S(=O)(=O)Nc2ccc(C(=O)NCc3ccco3)cc2)c1 was read as Cruzain inh noDet -10%, StopGo reporter 28%, RE007 growth inh 1%, SARS PLP yeast 10%, NS1 function inh 11%, LASV entry inh -7%, Marburg entry inh -14% and Cruzain inh Det -1.4%.
`O=C1c2cccnc2C(=O)N1Cc1ccc(S(=O)(=O)NCc2ccco2)cc1` gave StopGo reporter -16%, RE007 growth inh 8%, SARS PLP yeast 12% and NS1 function inh inconclusive.
Screening CCc1c(C)nc2ncnn2c1NCCc1ccccc1 returned Cruzain inh noDet -1%, StopGo reporter inconclusive, RE007 growth inh 6%, SARS PLP yeast -4%, NS1 function inh -46%, LASV entry inh 3%, Marburg entry inh inconclusive and Cruzain inh Det 4.3%.
For O=C(Cc1ccccc1)NCCS(=O)(=O)N1CCN(c2ccccc2)CC1 the results were StopGo reporter -21%, RE007 growth inh 7%, SARS PLP yeast -10%, LASV entry inh 12% and Marburg entry inh -18%.
`Cc1cc(C)cc(NC(=O)CSCc2cc(=O)c3cc(Cl)ccc3[nH]2)c1` gave Cruzain inh noDet -14%, StopGo reporter 3%, LASV entry inh -28%[46.1 µM] and Cruzain inh Det 3.5%.
For CCN(Cc1ccccc1)C(=O)c1cnn(-c2ccc(F)cc2)c1-n1cccc1 the results were Cruzain inh noDet -3%, StopGo reporter -19%, LASV entry inh -21%[46.1 µM] and Cruzain inh Det -5.2%.
Screening O=C(Cc1ccccc1)NNC(=O)c1cnccn1 returned Cruzain inh noDet 6%, StopGo reporter -13%, RE007 growth inh 13%, SARS PLP yeast -27%, NS1 function inh -2%, LASV entry inh 4%, Marburg entry inh 12% and Cruzain inh Det -1.1%.
Screening Cc1csc(NC(=O)CSc2[nH]c(=O)ncc2C)n1 returned StopGo reporter 26%, RE007 growth inh -1%, SARS PLP yeast -1%, LASV entry inh 11% and Marburg entry inh 7%.
Screening CCOc1ccc(CNS(=O)(=O)c2cc(-c3cc(C)no3)ccc2C)cc1OC returned Cruzain inh noDet 9%, StopGo reporter 16%, LASV entry inh 24%[46.1 µM] and Cruzain inh Det 1.8%.
For COc1ccccc1-n1cnnc1SCC(=O)Nc1ccccc1 the results were StopGo reporter 25%, RE007 growth inh -18%, SARS PLP yeast 4%, NS1 function inh 9%, LASV entry inh 19%[46.1 µM] and Marburg entry inh inconclusive.
For O=C(Nc1ccc(N2C(=O)C3C4C=CC(C4)C3C2=O)cc1)Nc1nnc(C(F)(F)F)s1 (stereo not given) the results were Cruzain inh noDet -4%, StopGo reporter -19%, RE007 growth inh 2%, SARS PLP yeast -3%, NS1 function inh 4% and Cruzain inh Det -5.0%.
For CN(CC(=O)Nc1ccc(F)cc1)C(=O)CSc1nc2ncc(Cl)cc2[nH]1 the results were StopGo reporter 7%, RE007 growth inh -10%, SARS PLP yeast -1%, LASV entry inh 10% and Marburg entry inh 9%[46.1 µM].
Screening CCc1cccc(NC(=O)CCc2c(C)nc3c(-c4ccccc4)c(C)nn3c2C)c1 returned Cruzain inh noDet -7%, StopGo reporter -4%, LASV entry inh inconclusive, Marburg entry inh -6%[46.1 µM] and Cruzain inh Det -2.6%.

Screens (PubChem)
